Screening results deposited in PubChem by National Center for Advancing Translational Sciences (NCATS).
StopGo RLuc = FMDV 2A StopGo reporter, Renilla signal. 120,000 tested, 0.32% active. Potency, µM (series often up to 57.5 µM), for inactives: at the top dose signal change, negative = less light. HEK cells with a luciferase reporter of 2A StopGo recoding; active means well fitted falling curve with a large enough effect; inconclusive means small, poorly fitted or top-dose-only effect; inactive means no such curve, though single readings can be large or run the other way; note: nearly all actives have a fitted effect of over 55% in size; overnight with compound
StopGo FLuc = FMDV 2A StopGo reporter, firefly signal | HEK cells with a luciferase reporter of 2A StopGo recoding | Potency, µM (highest dose often 57.5 µM), inactives show at the top dose signal change, negative = less light | 120,000 tested, 0.23% active; active = well fitted falling curve with a large enough effect; inconclusive = small, poorly fitted or top-dose-only effect; inactive = no such curve, though single readings can be large or run the other way; note: nearly all actives have a fitted effect of over 60% in size; overnight with compound
Starred values were filed as active, the others as inactive; ? = inconclusive; [ ] = dose if it differs, or a comment. % is set by controls: 0 for no effect and ±100 for the full control effect; potency is the fitted concentration of half-maximal effect.

SMILES	StopGo RLuc	StopGo FLuc
COc1ccc(Cl)cc1NCC(=O)NC(C)(C#N)C(C)C (centres undefined)	19%	6%
Nc1nonc1-c1nc2ccccc2n1Cc1cccc(Cl)c1	-6%	-13%
CC(=O)NCCNc1nc(-c2ccccc2)nc2ccccc12	11%	14%
CC1CCC(NC(=O)c2ccc3c(c2)N(Cc2ccccc2)C(=O)c2ccccc2S3=O)CC1 (centres undefined)	8%	43%[activator]
COC(=O)C1=C(C)OC(N)=C(C#N)C1c1ccccc1C (centres undefined)	11%	38%[activator]
Cc1ccc(-c2noc(CCC(=O)Nc3ccc(F)cc3Cl)n2)cc1	-8%	-18%
Cc1cccc2sc(N(CCCN(C)C)C(=O)COc3ccccc3)nc12	0%	0%
CC(=O)Nc1cccc(C(C)NC(=O)Nc2ccccc2SC2CCCC2)c1 (centres undefined)	-26%	-10%
O=C(CCc1nnc2ccc(NCc3ccccc3Cl)nn12)Nc1cccnc1	11%	0%
COc1cccc(CNC(=O)Cn2c(=O)nc3n2C(=O)N(c2ccccc2)C3)c1	-16%	-8%
CCCCNc1nc(Oc2ccc(=O)n(-c3ccccc3)n2)nc(N(C)C)n1	8%	-3%
Cc1cccc(NC(=O)Cn2c(=O)n(CCC(=O)N3CCc4ccccc4C3)c(=O)c3ccccc32)c1	60%[activator]	0%
O=C(NCc1ccc(OC(F)(F)F)cc1)c1n[nH]c(=O)c2ccccc12	12%	28%
Cc1nn(-c2nc3ccccc3o2)c2c1C(c1cccc(Cl)c1Cl)CC(=O)N2 (centres undefined)	-15%	-2%
CN(C)CCn1c(=O)n(CCO)c(=O)c2c3c(sc21)COC(C)(C)C3	-8%	-2%
COc1ccc(Cl)cc1NC(=O)c1cc(=O)c2ccccc2o1	-5%	0%
CCc1ccc(CNC(=O)c2cc3c(=O)n(Cc4cccs4)ccc3nc2C)cc1	104%[activator]	?
N#Cc1ccccc1Sc1ccccc1C(=O)Oc1ccc(Cl)cc1Cc1ccccc1	21%	0%
Cc1c(C)n(C)c2ccc(C(=O)NCCCN3CCCCC3)cc12	16%	0%
CCOC(=O)C1=C(C)Nc2nc(SCc3ccccc3)nn2C1c1ccc(C)cc1 (centres undefined)	7%	24%
Cc1cccc(OCC(=O)N(Cc2ccccc2)c2ccccn2)c1	110%[activator]	39%[activator]
CCC(C)NS(=O)(=O)c1cccc2cc(C)cnc12 (centres undefined)	30%[activator]	3%
Cc1ccc(CNC(=O)c2ccc3nc(-c4ccccc4)c(-c4ccccc4)nc3c2)cc1	43%[activator]	5%
CC(C)CN(C(=O)CSc1nc(CN2CCOCC2)nc2ccccc12)C1CCS(=O)(=O)C1 (centres undefined)	-17%	-5%
NC(=O)COc1ccc(NC(=O)Cn2ncc3ccccc3c2=O)cc1	-10%	6%
SMILES	StopGo RLuc	StopGo FLuc
Cc1oc2cc3oc(=O)c(CCC(=O)NCCc4ccccc4F)c(C)c3cc2c1C	10%	26%
O=C(Nc1cccc(Cl)c1)C1CCCN(c2ncnc3c2nc2n3CCCCC2)C1 (centres undefined)	31%[activator]	15%
CC1CCN(S(=O)(=O)c2cn(CC(=O)Nc3cccc(C(F)(F)F)c3)c(=O)c3ccccc23)CC1	258%[activator]	22%
CCOC(=O)c1cnc2c(Cl)cccc2c1Nc1ccccc1OCC	-1%	13%
CCCn1c(-c2ccc(OC)cc2)nc2c(=O)n(C)c(=O)[nH]c21	-5%	0%
COc1ccccc1OCc1nc2ccccc2n1Cc1ccccc1	4%	0%
Cc1cc(C)cc(NC(=O)CCCc2nc(-c3ccco3)no2)c1	-4%	12%
CCc1ccc(NC(=O)CN2C(=O)C(=O)c3ccccc32)cc1	0%	2%
COc1cc(C(=O)Oc2ccc3c(c2)O/C(=C\c2ccc(C(C)(C)C)cc2)C3=O)cc(OC)c1OC	-10%	24%
COC(=O)c1nc2ccccc2nc1N1CCN(c2ccc(F)cc2)CC1	-29%	?
C[C@H](NC(=O)CCn1ccc2ccc(F)cc21)C(=O)O	1%	6%
CCC(C(=O)NCCc1ccc(OC)c(OC)c1OC)n1nc(C)c2sc3ccccc3c2c1=O (centres undefined)	136%[activator]	-7%
COc1cc(C(=O)COC(=O)COc2ccc(Cl)cc2)cc(OC)c1OC	-8%	-4%
O=C(Cc1ccc(Cl)cc1)Nc1nc2c(s1)CCCC2	-16%	90%[activator]
O=C(NCc1cccc(Cl)c1)c1cnc(N2CCOCC2)c2ccccc12	32%[activator]	-29%
N#Cc1c(N2C(=O)CC(c3ccc4c(c3)OCO4)C3=C2CCCC3=O)sc2c1CCCCC2 (centres undefined)	12%	22%
Fc1cccc(Nc2nc(NCC3CCCO3)nc3c2cnn3-c2ccccc2)c1 (centres undefined)	19%	11%
CC1=C(c2ccc(F)cc2)S(=O)(=O)N=C1N1CCC(C(=O)NCCc2cccc(C)c2)CC1	24%	0%
Clc1ccc(Nc2nc(-c3ccccc3)c3ccccc3n2)c(Cl)c1	-16%	-11%
CCOc1ccc(NC(=O)Nc2nnc(N3CCCCC3)s2)cc1	1%	35%[activator]
Cc1cc(NC(=O)CSc2nc3c([nH]c4ccccc43)c(=O)n2-c2cccc(Cl)c2)no1	-17%	-15%
O=C(O)CC(NC(=O)c1ccccc1F)c1ccc(OC2CCCC2)cc1 (centres undefined)	0%	0%
COc1ccc(-n2cnc3c2NC(=O)CC3c2cccnc2)c(OC)c1 (centres undefined)	-11%	-1%
NC(=O)CCN(C(=O)c1cccc(Cl)c1)c1ccc(F)cc1	-9%	-3%
CC(C)(C)OC(=O)N1CCC(c2c(C(=O)N3CCCCC3)cnn2-c2ccc(F)cc2)CC1	26%	33%
SMILES	StopGo RLuc	StopGo FLuc
Cc1nc2nc(SCC(=O)Nc3ccccc3C(C)(C)C)[nH]c2cc1Br	-3%	-6%
COc1cc(NC(=O)COc2cc(C)cc3oc(=O)cc(C)c23)cc(OC)c1OC	-1%	-9%
CCN(C(=O)CSc1nnc(-c2cc3occc3n2C)n1-c1ccccc1C)c1cccc(C)c1	-17%	-22%
Cc1ccc(C)c(C(=O)COC(=O)CCCC(=O)Nc2cc(C(F)(F)F)ccc2Cl)c1	-7%	-1%
O=C1CC(c2cc(Cl)ccc2F)c2c(n3c(nc4ccccc43)[nH]c2=O)N1 (centres undefined)	-5%	-9%
COc1ccc(NC(=O)c2ccc(NC(=O)CCS(=O)(=O)c3cccs3)cc2)cc1OC	6%	13%
Cc1ccc(-c2cc(C(=O)NCCCN(C)C)c3ccccc3n2)cc1C	-4%	43%[activator]
N#Cc1nc(C2CC2)oc1N1CCN(C(=O)c2cccnc2)CC1	-13%	-5%
C=C(COC(C)=O)C1Cc2c(ccc3c2OC2COc4cc(OC)c(OC)cc4C2C3=O)O1 (centres undefined)	0.2µM*	?
COc1ccc2nc3sc(C(=O)N4CCN(c5ccccc5)CC4)cc3cc2c1	-10%	-19%
CCCC1=Nc2cc(C(=O)NC3CCCCC3)ccc2Sc2ccc(C)cc21	55%[activator]	32%[activator]
O=C(CSc1nncn1-c1ccccc1F)Nc1ccccc1C(=O)Nc1ccccc1	21%	2%
Cc1cccc(NC(=O)CN2C(=O)CC(c3ccccc3)Sc3ccccc32)c1 (centres undefined)	20%	-13%
COc1ccc(CN2CCN(C(=O)COc3ccc4ccccc4c3)CC2)cc1	?	?
Cc1ccc2[nH]c(C)c(CCNC(=O)c3cc4cc(Br)ccc4oc3=O)c2c1	-6%	-13%
N[C@@H](Cc1ccc(O)cc1)C(=O)O	-2%[11.5 µM]	-14%[2.3 µM]
CC1CCc2nc3ncn(Cc4ccccc4C#N)c(=O)c3cc2C1 (centres undefined)	2%	-10%
CCOC(=O)C1=C(N)OC(c2ccccc2)=C(C(=O)OCC)C12C(=O)Nc1ccc(Br)cc12 (centres undefined)	21%	5%
O=C(NCc1ccc(F)cc1)C1CCCCC1	-5%	37%[activator]
O=C(Nc1ccc(Oc2ccccc2)cc1)C(Cc1ccccc1)n1cnnn1 (centres undefined)	?	?
CCc1cc2c(cc1C1(C)OCCO1)C(C)(C)CCC2(C)C	14%	14%
COC(=O)c1ccc(OCc2cccc(C#N)c2)c(OC)c1	38%[activator]	0%
COc1ccc(NC(C)=O)cc1NC(=O)C(=O)c1c[nH]c2ccccc12	31%[activator]	51%[activator]
CC(C)n1cc2c(c1-c1ccccc1Cl)c(=O)n(C)c(=O)n2C	-11%	-8%
O=C(Cc1n[nH]c(=O)c2ccccc12)N(Cc1ccccc1)c1nc2c(s1)CCCC2	4%	172%[activator]

Reformatted: results already given.
CCOC(=O)C1=C(N)OC(c2ccccc2)=C(C(=O)OCC)C12C(=O)Nc1ccc(Br)cc12 (centres undefined)
- StopGo RLuc = 21%
- StopGo FLuc = 5%

O=C(NCc1ccc(F)cc1)C1CCCCC1
- StopGo RLuc = -5%
- StopGo FLuc = 37%[activator]

O=C(Nc1ccc(Oc2ccccc2)cc1)C(Cc1ccccc1)n1cnnn1 (centres undefined)
- StopGo RLuc = ?
- StopGo FLuc = ?

Back to the main list, starting six compounds before the break.
SMILES	StopGo RLuc	StopGo FLuc
O=C(Nc1ccc(Oc2ccccc2)cc1)C(Cc1ccccc1)n1cnnn1 (centres undefined)	?	?
CCc1cc2c(cc1C1(C)OCCO1)C(C)(C)CCC2(C)C	14%	14%
COC(=O)c1ccc(OCc2cccc(C#N)c2)c(OC)c1	38%[activator]	0%
COc1ccc(NC(C)=O)cc1NC(=O)C(=O)c1c[nH]c2ccccc12	31%[activator]	51%[activator]
CC(C)n1cc2c(c1-c1ccccc1Cl)c(=O)n(C)c(=O)n2C	-11%	-8%
O=C(Cc1n[nH]c(=O)c2ccccc12)N(Cc1ccccc1)c1nc2c(s1)CCCC2	4%	172%[activator]
CSc1nc2c(c(=O)[nH]1)C(c1ccncc1)C(C(=O)OC(C)C)=C(C)N2 (centres undefined)	29%	32%
CCN(Cc1ccccc1)c1ncnc2c1nnn2C	36%[activator]	-23%
Cc1ccc(S(=O)(=O)c2nc(-c3cccs3)oc2N2CCCCC2)cc1	-12%	-13%
CC(C/C=N/NC(=O)c1csc2ccccc12)c1ccccc1 (centres undefined)	-4%	0%
CC(C)N1Cc2nnn(Cc3ccccc3)c2-c2cc(N3CCCC3)ccc2S1(=O)=O	158%[activator]	-15%
COc1ccc(/C=C(/C(=O)O)c2cccs2)cc1	8%	14%
Cc1cc(C(=O)NC2CCCc3ccccc32)c2ccccc2n1 (centres undefined)	-4%[1.06 µM]	?
CCOc1ccccc1NC(=O)CCc1ccc(-c2ccc(C)cc2)o1	10%	31%[activator]
COc1cccc(C2CC(=O)Nc3c(C(=O)O)cn(-c4cccc(Cl)c4)c32)c1OC (centres undefined)	39%[activator]	44%[activator]
CC(C)c1ccc(C(C)NC(=O)Cc2cccs2)cc1 (centres undefined)	52%[activator]	24%
CCN(c1cccc(C)c1)S(=O)(=O)c1ccc2[nH]cc(C(=O)NCCCOC)c(=O)c2c1	-15%	?
COc1ccc(OC)c(-c2cc(C(=O)Nc3cccc(Cl)c3C)no2)c1	-8%	-4%
COc1ccc(C2Nc3ccccc3-c3cc(C)nn32)cc1O (centres undefined)	11%	39%[activator]
CCN(c1ccccc1)c1ccc2cc(S(=O)(=O)N3CCCC3)ccc2n1	14%	-5%
O=C(CSC1=Nc2ccccc2N=C(c2ccc(F)cc2)C1)Nc1ccc(Cl)cc1	-1%	16%
COc1ccc(OC)c(NC(=O)c2sc3nc4c(cc3c2N)CCCCCC4)c1	-4%	-2%
N#CC(C(=O)Nc1ccccc1)C(=O)c1ccccc1Cl (centres undefined)	0%	34%[activator]
Cc1cc(C)c(NC(=O)CSc2nc(-c3ccc(F)cc3)nc3c2Cc2c(CO)cnc(C)c2O3)c(C)c1	-6%	-22%
NC(=O)c1ncn([C@@H]2O[C@H](CO)[C@@H](O)[C@H]2O)c1O	-15%	-16%
CCOc1ccc(Oc2ccccc2N)cc1	-4%	0%
O=C1CCCc2nc3ccccc3c(-c3ccccc3)c21	10%	4%
COc1ccc(C(=O)N(Cc2cc3ccc(C)cc3[nH]c2=O)c2ccc(C)cc2)cc1OC	-2%	-4%
Cc1ccc(CN(C)CC(=O)NC(=O)NC2CCCC2)cc1	33%[activator]	15%
COc1cc(NC(=O)c2sc3nc4n(c(=O)c3c2C)CCCCC4)cc(OC)c1OC	9%	4%
CCOc1ccc(NC(=O)c2nn(-c3ccc(OC)cc3OC)c(=O)c3ccccc23)cc1	-8%	-2%
CN(C)C(CNC(=O)CCc1ncc(-c2ccccc2)o1)c1cccc(F)c1 (centres undefined)	4%	55%[activator]
CCOc1ccccc1CNC(=O)c1cnn(-c2ccc(C)cc2)c1-n1cccc1	2%	4%

The list is partial; rates above refer to the full screens.
